# Six1-Eya2 inh = blocks human Six1 binding to Eya2 | Q15475+O00167 | AlphaScreen GST-Six1/His-Eya2 binding, biochemical; stronger effect = lower value; control for the full effect not named in the record | activity change, % (test concentration not listed) | 360,000 tested, 0.56% active; in the data active = activity change below about -65%; inconclusive = about -30% to -65%; inactive = above about -30%; note: % is set by controls: 0 for no effect and ±100 for the full control effect; compound concentration not given in the record
# Target sequence (O00167 whole entry, looked up): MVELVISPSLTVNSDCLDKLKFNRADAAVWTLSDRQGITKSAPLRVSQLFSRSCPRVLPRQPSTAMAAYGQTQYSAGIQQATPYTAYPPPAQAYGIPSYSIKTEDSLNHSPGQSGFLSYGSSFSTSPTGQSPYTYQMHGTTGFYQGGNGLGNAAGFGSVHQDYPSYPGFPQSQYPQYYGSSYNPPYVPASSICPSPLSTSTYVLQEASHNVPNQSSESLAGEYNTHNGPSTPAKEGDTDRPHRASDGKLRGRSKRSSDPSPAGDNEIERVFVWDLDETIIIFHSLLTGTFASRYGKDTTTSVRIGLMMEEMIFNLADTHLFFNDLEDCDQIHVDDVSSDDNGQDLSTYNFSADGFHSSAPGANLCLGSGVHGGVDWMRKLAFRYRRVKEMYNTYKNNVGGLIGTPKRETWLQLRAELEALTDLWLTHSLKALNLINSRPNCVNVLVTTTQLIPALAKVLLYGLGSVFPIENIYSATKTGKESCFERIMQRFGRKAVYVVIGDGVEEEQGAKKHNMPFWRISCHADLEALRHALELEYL
# Target sequence (Q15475 whole entry, looked up): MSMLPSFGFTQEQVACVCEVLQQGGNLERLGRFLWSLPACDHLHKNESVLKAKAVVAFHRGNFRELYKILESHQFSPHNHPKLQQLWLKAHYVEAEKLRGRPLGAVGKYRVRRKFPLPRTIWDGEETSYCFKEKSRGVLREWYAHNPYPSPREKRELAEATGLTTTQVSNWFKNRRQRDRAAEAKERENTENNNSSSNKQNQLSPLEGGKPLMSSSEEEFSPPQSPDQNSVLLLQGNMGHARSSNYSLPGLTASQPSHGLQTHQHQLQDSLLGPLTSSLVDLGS
#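 AlphaScreen luminescence read after one hour at 37 °C in darkness. Pin-transferred compounds met GST-Six1 and His-Eya2 protein (5X stock 250 nM/500 nM) plus glutathione donor and Ni-chelate acceptor beads (5X, 50 ug/mL).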
# PINK1 expr mod = modulators of PINK1 expression; 410,000 tested, 0.2% active; Potency, µM (highest dose often 76.6 µM), for the others: at the top dose activation (PINK1 increase), hits mostly activators; PINK1 immunofluorescence, high-content cytometry, 24 h; active = well fitted activation curve with a large enough effect; inconclusive = small, poorly fitted or top-dose-only effect; inactive = flat fitted curve, though single readings scatter; cell line not stated here;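 note: potency is the fitted concentration of half-maximal effect; % of control where 0% means no effect; nearly all actives have a fitted effect of over 65% in size; a mitochondrial uncoupler was the plate control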
#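 Readout is PINK1 immunofluorescence, quantified alongside mitochondrial, cell and nuclear markers by laser-scanning microplate cytometry. Cells from a stable line were exposed to compound titrations (5 concentrations) for 24 hours, with CCCP controls.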
# D2 ag = agonists of human D2 dopamine receptor (beta-arrestin); P14416; DiscoveRx PathHunter D2 beta-arrestin, luminescence, 90 min; 100% = 57 uM dopamine signal; activation, % (no concentration beside the values); 360,000 tested, 0.084% active; in the data active = activation above about 40%; inconclusive = about 15% to 40%; inactive = below about 15%; note: compound concentration not given in the record; the text of the record calls up to 30% inactive
#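 Agonist mode: compounds alone added to overnight-plated D2 PathHunter cells for 90 min at 37 C, with 57 uM final dopamine (EC100) defining full response. Beta-arrestin recruitment detected by chemiluminescent reagent, read after 1 h at ambient temperature.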
# CtBP-E1A inh = inhibitors of CtBP/E1A interaction. 340,000 tested, 0.49% active. AlphaScreen GST-E1A/His-CtBP binding, 1536-well; stronger effect = lower value; control for the full effect not named in the record. activity change, % (test concentration not listed). AID 651724; in the data active means activity change below about -65%; inconclusive means about -30% to -65%; inactive means above about -30%; note: % is set by controls: 0 for no effect and ±100 for the full control effect; compound concentration not given in the record
#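 Protein mix (5X: 125 nM each GST-E1A, His-CtBP) was incubated with pinned compound 2 h at 37 deg C in dark, in 50 mM Tris pH 8.0 buffer with 300 mM NaCl. Glutathione donor and nickel acceptor beads followed; AlphaScreen signal read after 1 h.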
# TRPML1 ag = agonists of human TRPML1 channel | Q9GZU1 | AID 624414 | activation, % (test concentration not listed) | TRPML1-expressing cells, Ca2+ dye fluorescence, FDSS; host cell line not named in the record; reference of the full effect not given here | 410,000 tested, 0.12% active; in the data active = activation above about 50%; inconclusive = about 30% to 50%; inactive = below about 30%; note: 0% is about no effect; the text of the record puts the active cut at 80%
#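 Agonist activity was taken from a 110 s kinetic Ca2+ dye read on the FDSS after pinning compounds onto TRPML1-DL cells. The cells were seeded at 1,500/well with Tet inducer, incubated about 16 h, then dye-loaded at room temperature.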
# TRPML1 blocker = inhibitors of human TRPML1 channel | 390,000 tested, 0.02% active | TRPML1-inducible cells, Ca2+ dye fluorescence, FDSS; stronger effect = lower value; inhibition of EC80 agonist-evoked calcium signal | Q9GZU1 | activity change, negative = inhibition, % (test concentration not listed); in the data active means activity change below about -50%; inconclusive means about -30% to -50%; inactive means above about -30%;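 note: stimulus is agonist 54-4 at its EC80 concentration; % is set by controls: 0 for no effect and ±100 for the full control effect; compound concentration not given in the record; the text of the record puts the active cut at -80%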
#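 Tet-induced TRPML1-DL cells loaded with Ca8 no-wash calcium dye were read kinetically on FDSS. Compound addition was followed by EC80 agonist 54-4 (4 uM final); inhibition was read over 110 s.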
# Active calls of the source: *; ? = inconclusive; · = not tested or not shown; [ ] = remark or other dose. Not a hit list. Share with any hit: about 1%.
canonical_smiles,Six1-Eya2 inh,PINK1 expr mod,D2 ag,CtBP-E1A inh,TRPML1 ag,TRPML1 blocker
N=c1c(S(=O)(=O)c2ccc(Cl)cc2)cc2c(=O)n3ccccc3nc2n1C1CCCCC1,12,3.3%,1.0,8,0.1,?
O=C(CN1CCCCC1)Nc1ccccc1-c1ccccc1,7,·,-0.4,5,1.6,1
CCO[C@@H]1OC(C(=O)N2CCOCC2)=C[C@H](c2cn(C(C)=O)c3ccccc23)[C@H]1CCCO,10,0.7%,-1.6,7,-1.1,-11
O=C(Nc1ccon1)c1ccc(Br)s1,-9,-1.3%,-4.5,-24,1.0,-24
N#Cc1c2n(c3c(-c4ccccc4)ncnc13)CCC2,1,-0.9%,1.6,-6,0.2,-1
CNc1cc(N2CCCC2)ccc1[N+](=O)[O-],4,1.6%,-0.5,7,2.7,-8
C[C@H]1NC(=O)[C@]2(C)[C@@H](c3ccccc3)[C@H]3COc4ccccc4[C@H]3N2C1=O,6,-0.1%,-4.8,-24,0.0,-7
O=C1OCC(O)=C1Cc1ccccc1,2,-0.1%,-2.4,0,-0.1,-1
COC(=O)c1ccc(Oc2nc(Nc3ccccc3)nc(N(C)C)n2)cc1,0,4.0%,1.2,-1,-1.1,-10
CCN(CC)S(=O)(=O)c1ccc(O)c(NS(=O)(=O)c2ccccc2F)c1,4,2.8%,-2.5,-2,0.1,15
CCOc1ccc(-c2cn(CCC#N)cn2)cc1,-4,1.0%[38.3 µM],0.6,1,0.4,-9
Cc1cc(NC(=O)CS(=O)(=O)Cc2ccccc2)no1,3,0.9%,5.0,9,-1.0,-1
O=C(CSc1cn(CC(=O)N2CCCCC2)c2ccccc12)Nc1ccccc1F,·,1.2%,·,·,1.8,-5
CC(C)CCc1noc(CN(C)CCC2CCOCC2)n1,13,1.4%,-2.4,1,0.0,14
Cc1cccc(NC(=O)CNC(=O)c2ccc3nc[nH]c3c2)c1C,-4,-4.2%,3.1,-16,0.5,10
CCOC(=O)C1CCCN(C(=O)c2ccccc2)CC1 (stereo not drawn),6,-1.0%,0.5,10,0.4,27
CCCCC(=O)NC1(C(F)(F)F)C(=O)Nc2c1c(=O)n(C)c(=O)n2C (stereo not drawn),2,-2.0%,-1.9,8,-0.3,4
Nc1ccccc1S(N)(=O)=O,7,0.9%,-5.2,-1,-0.2,-17
COc1ccc([N+](=O)[O-])cc1N(CC(O)CN1C(=O)NC(C)(C)C1=O)S(=O)(=O)c1ccc(C)cc1 (stereo not drawn),-5,-0.5%,-2.4,-4,-1.0,24
Cc1cc(N2CCOCC2)nc2ccc(NC(=O)CCC(=O)N3CCCCC3)cc12,-1,-2.0%[38.3 µM],-2.0,2,-0.6,24
Cc1c(C)c2c(OCC(=O)N3CCC(O)CC3)cc3c(c2oc1=O)CCC(C)(C)O3,-19,0.2%,3.7,-19,·,·
CCN(c1ccccc1)S(=O)(=O)c1ccc(OC)c(NC(=O)C2CC(=O)N(Cc3ccccc3)C2)c1 (stereo not drawn),8,0.5%,-5.8,·,1.0,13
CCCCc1c(-c2ccccc2OC)ncn1CCc1cccc(Cl)c1,-15,?,·,0,0.5,·
Cc1ccc(S(=O)(=O)N2CCN(c3nccnc3C#N)CC2)cc1,16,2.0%,-6.7,10,0.1,0
CCCn1c2c(c(O)c(C(=O)NC)c1=O)CCCC2,-5,-1.5%,-2.1,-1,-1.6,0
CC(C)CN(C(=O)CCCSc1nc2ccccc2[nH]1)c1c(N)n(Cc2ccccc2)c(=O)[nH]c1=O,10,0.5%,6.2,-20,0.1,10
CCCSc1nc(N2CCCC2)c2c(c1C#N)CC(C)(C)OC2,0,3.1%,-2.7,1,0.5,11
COc1ccccc1-c1cc(C(=O)N/N=C/c2cccs2)c2ccccc2n1,-11,0.4%,-0.5,-1,-0.3,-14
CC1CCCCC1NC(=O)Cn1nc(-c2ccccc2)ccc1=O (stereo not drawn),0,-2.2%[38.3 µM],-0.9,20,-0.3,-7
CCn1cnc2c(cnn2-c2ccccc2)c1=O,-2,-0.4%,0.0,-1,0.3,-5
COc1ccccc1N(Cc1cc(=O)[nH]c2ccccc12)C(=O)c1ccccc1,-22,-1.6%,-5.7,-5,-1.4,-8
Nc1c(C(=O)CSc2nnc(-c3ccccc3)o2)c(=O)[nH]c(=O)n1C1CC1,0,?,8.4,2,1.4,54
Cc1ccc(CN2CCCNC2=O)cc1,-1,5.6%[38.3 µM],-0.1,4,0.6,-4
c1ccc(Cn2cc(CNc3ccccc3)nn2)cc1,-1,1.0%,0.1,0,-0.8,-4
COc1ccc([N+](=O)[O-])cc1N(CC(=O)NCc1ccco1)S(C)(=O)=O,-1,1.9%,2.5,9,-0.5,2
O=C(CN1CCN(C(C(=O)Nc2ccc(Cl)cc2C(F)(F)F)c2ccccc2)CC1)NC1CC1 (stereo not drawn),0,0.9%,1.8,2,0.1,-4
Cc1[nH]c2ccccc2c1/C=N/NS(=O)(=O)c1ccccc1,5,3.1%,5.6,11,-0.2,7
COc1cccc(SCC2CSc3nc4ccccc4c(=O)n32)c1 (stereo not drawn),1,-1.5%,-1.1,2,-0.2,3
Cc1[nH]c(=O)[nH]c(=O)c1S(=O)(=O)N1CCCC(C(=O)N2CCC(Cc3ccccc3)CC2)C1 (stereo not drawn),0,0.8%,-3.7,2,-0.4,-8
Cc1ccc(C)c(N/N=C2\CCCNC2=O)c1,-12,4.7%,2.5,-4,0.3,-2
CCc1ccc2c(CN3CCOCC3)cc(=O)oc2c1,6,-1.1%,0.8,25,1.8,-8
COc1cccc(NC(=O)CN(C)C(=O)/C=C/c2cc(OC)ccc2OC)c1,-6,0.1%,-2.1,-8,-0.6,12
Cc1cccc(NC(=O)CSCC(=O)N(C)CC(=O)Nc2cccc(F)c2)c1,-9,-0.7%,-5.3,-5,0.6,-15
CSc1nc(-c2ccccc2Cl)nc2c1Cc1c(CO)cnc(C)c1O2,·,0.7%,·,·,1.0,6
COCCN1C=C(C(=O)OC)C(c2ccccc2C(F)(F)F)C(C(=O)OC)=C1,13,1.9%,-4.0,19,1.3,7

# 7 compounds already listed, arranged by molar mass, ascending.
canonical_smiles,Six1-Eya2 inh,PINK1 expr mod,D2 ag,CtBP-E1A inh,TRPML1 ag,TRPML1 blocker
CCc1ccc2c(CN3CCOCC3)cc(=O)oc2c1,6,-1.1%,0.8,25,1.8,-8
COc1cccc(SCC2CSc3nc4ccccc4c(=O)n32)c1 (stereo not drawn),1,-1.5%,-1.1,2,-0.2,3
COc1cccc(NC(=O)CN(C)C(=O)/C=C/c2cc(OC)ccc2OC)c1,-6,0.1%,-2.1,-8,-0.6,12
Nc1c(C(=O)CSc2nnc(-c3ccccc3)o2)c(=O)[nH]c(=O)n1C1CC1,0,?,8.4,2,1.4,54
CSc1nc(-c2ccccc2Cl)nc2c1Cc1c(CO)cnc(C)c1O2,·,0.7%,·,·,1.0,6
COCCN1C=C(C(=O)OC)C(c2ccccc2C(F)(F)F)C(C(=O)OC)=C1,13,1.9%,-4.0,19,1.3,7
O=C(CN1CCN(C(C(=O)Nc2ccc(Cl)cc2C(F)(F)F)c2ccccc2)CC1)NC1CC1 (stereo not drawn),0,0.9%,1.8,2,0.1,-4

# (further entries)
canonical_smiles,Six1-Eya2 inh,PINK1 expr mod,D2 ag,CtBP-E1A inh,TRPML1 ag,TRPML1 blocker
O=C(CC1Sc2ccccc2NC1=O)NNC(=O)Nc1ccc(Cl)cc1 (stereo not drawn),3,5.2%,-2.4,-3,0.9,19
O=C(CN1CCCCCC1)Nc1ccc(Br)cn1,-7,0.2%,-5.1,4,-0.2,1
O=C(c1cc(C2CC2)nn1-c1ccccc1)N1CCN(c2ncc(C(F)(F)F)cc2Cl)CC1,0,14%,-0.7,-5,3.8,18
CCCc1cc(N2CCOCC2)n2ncc(-c3ccccc3)c2n1,9,2.8%,-0.2,12,1.5,-4
CC1CC(C)(C)NC(=S)S1 (stereo not drawn),1,-1.5%,-1.2,2,5.3,-10
COc1ccc(C(=O)N(c2ccc(C)cc2)S(=O)(=O)c2ccc(C)cc2)cc1,·,4.9%,·,·,-0.4,19
COc1ccccc1N(CC(=O)NCc1ccccc1)C(=O)CCC(=O)Nc1nccs1,-5,-1.3%,-2.9,-5,0.1,3
CC1=C(N2CCN(c3ncccn3)CC2)CCC1=O,-1,0.3%,-3.2,2,-0.1,9
COc1ccc(NC(=O)Nc2ccccc2SC)cc1OC,-13,1.0%,-4.6,·,1.3,16
CCc1ccc(-c2cc(C(=O)NN3CCN(C)CC3)c3ccccc3n2)cc1,-2,13%,-2.4,5,1.0,-11
O=C(Nc1ccc([N+](=O)[O-])cc1)Nc1ccc(OC(F)F)c(Cl)c1,-18,?,7.0,-11,3.6,35
Cc1cc(NC(=O)Cn2cnc3c(nnn3-c3ccc(C)c(Cl)c3)c2=O)no1,5,12%,-3.8,6,-0.6,9
Cc1ccccc1-c1noc(-c2ccccc2OCC(=O)Nc2ccccc2[N+](=O)[O-])n1,·,-0.7%,·,·,0.4,39
CCC(C)NC(=O)/C=C/c1cccs1 (stereo not drawn),7,-0.1%,-3.8,-2,0.4,4
CC(C)c1ccc2oc(=O)cc(CN3CCN(c4ccccc4)CC3)c2c1,-1,-0.5%,-2.6,-2,0.3,?
CCCCS/C(=C(/C#N)C(N)=O)c1cc2c([nH]1)CCCC2,-13,3.2%,-1.6,-7,0.5,19
Cc1ccc(NC(=O)CCN2CCC(Cc3ccccc3)CC2)cc1,-5,7.3%,6.7,-3,-0.5,-5
CCOC(=O)c1ccc(NC(=O)C(=O)NCc2ccccn2)cc1,-9,-1.2%,-3.2,-1,1.2,-8
Cc1cccc(NC(=O)Cn2nnc(-c3ccc(CN4CCCC4)cc3)n2)c1C,-2,-0.6%,-0.5,-3,0.7,8
O=C(Cn1cnc2ccccc21)N1CCc2ccccc21,8,0.9%,-5.0,·,0.3,1
COc1cccc(CN2CCN(C(=O)c3ccco3)CC2)c1OC,3,1.8%,?,13,-0.7,14
O=C1NCCC/C1=N/Nc1cc(F)ccc1F,-8,2.0%,-1.8,·,-1.0,-5
O=C(CCn1c(=O)c2cccn2c2cccnc21)N1CCN(c2ccc(F)cc2)CC1,·,0.3%,·,·,0.1,-11
CC(=O)Nc1ccccc1C(=O)C(=O)Nc1ccc(F)c(Cl)c1,23,0.3%,4.1,·,-0.4,19
O=C1CSC(=Nc2ccc(O)cc2)N1,5,3.1%,-5.5,3,0.1,32
Cc1cccc(NC(=O)c2nc[nH]c2C(=O)Nc2cccc(C)c2)c1,10,17%,1.1,-25,-0.4,6
